Screening data as filed in PubChem.
ALR inh = inhibitors of human ALR sulfhydryl oxidase, primary screen, biochemical, H2O2 detection, HRP-luminol luminescence, single point | FAD-linked sulfhydryl oxidase ALR (Homo sapiens), P55789 | purified ALR, DTT oxidation | inhibition, % (test concentration not listed) | 290,000 tested, 3.8% active | AID 485317, 2010;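 active means mean and each replicate at 75% or more; inconclusive means only one of the two met; inactive means neither met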;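 further: stock transfer was 7.5 nL into about 7.5 µL; 0% = neutral wells and 100% = wells with inactivated enzyme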
Target sequence (P55789 whole entry, looked up): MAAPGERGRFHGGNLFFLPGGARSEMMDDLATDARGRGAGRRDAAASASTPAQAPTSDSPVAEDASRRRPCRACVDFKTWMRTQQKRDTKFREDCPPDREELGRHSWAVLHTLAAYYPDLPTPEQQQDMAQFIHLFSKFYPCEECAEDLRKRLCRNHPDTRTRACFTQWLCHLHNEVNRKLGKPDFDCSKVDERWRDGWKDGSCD
FGF22 binding = binders of human FGF22 protein, primary screen, FGF22 synaptogenesis inhibitor project, biophysical, thermal shift, single point. 340,000 tested, 1.5% active. calls only at 9.99 µM. recombinant FGF22 thermal shift, SYPRO orange fluorescence; percent of sucrose octasulfate shift, DMSO zero. AID 651658, 2012;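 active means melting point raised past a set limit in the mean and every replicate; inconclusive means no clear call; three in four hits are not shown here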
Target sequence (Q9HCT0 whole entry, looked up): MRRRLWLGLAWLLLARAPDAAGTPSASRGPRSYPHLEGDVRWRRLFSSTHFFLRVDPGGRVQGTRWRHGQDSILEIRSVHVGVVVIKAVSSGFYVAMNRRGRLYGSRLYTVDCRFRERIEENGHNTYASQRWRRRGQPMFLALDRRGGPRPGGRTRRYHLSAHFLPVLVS
Beta apoptosis = inhibitors of cytokine-induced beta cell apoptosis, primary screen, luminescence | INS-1E cytokine-induced death, ATP luminescence, 48 h; percent of positive-control rescue, neutral wells zero | 300,000 tested, 0.8% active | AID 435005, 2010 | protection from apoptosis, % (no concentration beside the values);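 active means all replicates at 75% or more, or half of them and the mean; inconclusive means half reach 75% but not the mean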;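 further: 0% = cytokine-treated negative control wells and 100% = positive control rescue; higher means more ATP so stronger rescue from cytokine killing; wells of about 40 µL received 100 nL stock; the first replicate is given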
Calb FLC = C. albicans growth inhibition with fluconazole, primary screen, CaCi-2 strain, Alamar Blue fluorescence. C. albicans CaCi-2 (fluconazole-resistant clinical isolate) + fluconazole, 48 h. growth inhibition, % (no concentration beside the values). 300,000 tested, 0.57% active. AID 1979, 2009;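 active means most replicates above 75%; inconclusive means exactly half above 75%; inactive means most below 75%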;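 further: all wells also contain fluconazole at 8 µg/ml as a sub-toxic cotreatment; 0% = median of DMSO wells and 100% = median of geldanamycin control wells; wells of about 8 µL received 7.5 nL stock; the first replicate is given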
rRNA inh HTS = reduced GFP signal of wild-type E. coli, primary screen, bacterial rRNA inhibitor project, GFP/RFP fluorescence, OD600, single point; GFP signal change (wild-type ribosome), % (concentration not given with the values); 350,000 tested, 1.6% active; E. coli WT GFP vs humanized-ribosome RFP mutants, 24 h; active compounds read low; DMSO median 0, no signal -100; AID 720706, 2013;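 active means significant combined selectivity score with lowered wild-type GFP, culture density cut under 30%, mutant RFP and density less affected; inactive means any of these conditions unmet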; further: one replicate is shown; some compounds called inactive have numbers as strong as hits
RanGTP-Impb inh = inhibitors of RanGTP-importin-beta interaction, primary screen, biochemical, FRET, CFP-Ran, YFP-importin-beta, homogeneous | Ran GTPase (GTP-bound) - importin-beta complex | inhibition, % (concentration not given with the values) | cell-free CFP-Ran/YFP-importin-beta FRET ratio | 300,000 tested, 1.1% active;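 active means most replicates above 15%; inconclusive means exactly half above 15%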;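 further: 0% = DMSO wells and 100% = Ran loaded with GDP instead of GTP; wells of about 40 µL received 100 nL stock; the first replicate is given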
T cruzi repl = inhibitors of intracellular T. cruzi growth, primary screen, luminescence, NIH3T3 host cells; 300,000 tested, 1.4% active; inhibition, % (no concentration beside the values); T. cruzi beta-gal in NIH3T3, 90 h;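 active means mean inhibition across valid replicates above about 55%, limit read from the data; inconclusive means mean below that limit but half or more replicates reach it; inactive means mean below it, under half of replicates reach it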;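 further: signal also drops with host cell toxicity which is not excluded here; 0% = plate median of DMSO wells and 100% = zero luminescence signal; higher percent means less beta-gal luminescence so fewer parasites; stock transfer was 50 nL into about 50 µL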
MLL AF4-AF9 inh = inhibitors of AF4 peptide binding to AF9, primary screen, biochemical, AlphaScreen, biotin-AF4 peptide, FLAG-AF9, single point. inhibition, % at 10 µM. Protein AF-9 (Homo sapiens), P42568. 350,000 tested, 0.47% active. AID 651704, 2012;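 active means every replicate reaching a set inhibition limit, whatever the replicate mean, cut at about 25% in these data; inconclusive means mean inhibition reaches that limit but some replicates miss it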;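 further: 0% = plate neutral control median and 100% = total signal loss; the record names both 10 and 1 µM as test concentration; the first replicate is given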
Target sequence (P42568 whole entry, looked up): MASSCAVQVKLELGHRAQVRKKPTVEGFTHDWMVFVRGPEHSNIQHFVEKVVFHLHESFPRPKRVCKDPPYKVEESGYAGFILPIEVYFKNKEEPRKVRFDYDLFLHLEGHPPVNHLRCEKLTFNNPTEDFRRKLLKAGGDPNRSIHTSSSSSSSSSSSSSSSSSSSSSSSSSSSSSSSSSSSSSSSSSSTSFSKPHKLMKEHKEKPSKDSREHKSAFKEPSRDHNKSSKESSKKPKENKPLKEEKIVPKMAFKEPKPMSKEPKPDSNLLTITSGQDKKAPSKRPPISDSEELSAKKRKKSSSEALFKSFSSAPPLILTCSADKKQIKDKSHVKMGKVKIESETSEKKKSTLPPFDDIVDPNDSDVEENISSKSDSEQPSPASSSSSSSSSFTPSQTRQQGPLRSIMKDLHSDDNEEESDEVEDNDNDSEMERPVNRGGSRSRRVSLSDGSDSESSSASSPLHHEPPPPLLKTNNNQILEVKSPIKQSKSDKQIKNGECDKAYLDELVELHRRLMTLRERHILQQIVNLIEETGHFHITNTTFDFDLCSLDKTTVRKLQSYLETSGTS
rRNA inh HTS OD600 = also measured in rRNA inh HTS; calls as there; OD600 change, %; measured here: OD600 growth;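 optical density of the mix in the first replicate; 0 = DMSO median and -100 = no signal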
rRNA inh HTS RFP = recorded beside rRNA inh HTS, whose call it bears; RFP signal change, %; measured here: RFP humanized mutant strains;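 first replicate; 0 = DMSO median and -100 = no signal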
Starred values were filed as active, the others as inactive; i = inactive; ? = inconclusive; . = not tested or not shown. A portion of the library. The share of hits here may be higher or lower than overall.

SMILES	ALR inh	FGF22 binding	Beta apoptosis	Calb FLC	rRNA inh HTS	rRNA inh HTS OD600	rRNA inh HTS RFP	RanGTP-Impb inh	T cruzi repl	MLL AF4-AF9 inh
COc1nc(NC2CCCCC2)nc(NC(C)(C)C)n1	33	i	11	-3	.	.	.	-3.3	40	2.6
CC(=O)Nc1nonc1C(=O)N1CCC(C)CC1	3	.	-3	14	.	.	.	-4.2	-6	.
Cc1cc(Cl)ccc1OC(C)C(=O)Nc1cnn(CCCC(=O)O)c1 (stereo not drawn)	2	i	3	-6	11	7	0.8	?	4	-0.8
C=CCOC(=O)C1=C(C)NC(=S)NC1/C=C/c1ccccc1 (stereo not drawn)	11	.	7	-12	.	.	.	5.9	28	.
Cc1cc(C)cc(NC(=O)CSc2nc3ccccc3nc2N2CCCC2)c1	-43	i	6	-13	7	1	2.4	2.4	7	2.4
CCN(CC)S(=O)(=O)c1ccc(NC(=S)Nc2ccc(F)cc2)cc1	-2	i	-10	-4	1	10	-3.4	?	-12	6.8
CC1CCCN(C(=O)COC(=O)CNS(=O)(=O)c2ccc3ccccc3c2)C1 (stereo not drawn)	-2	i	.	-4	-1	-7	3.3	-1.2	-11	5.0
O=C(Cn1cc(C(=O)C2CC2)c2ccccc21)NCc1ccccc1	-5	.	-1	-2	.	.	.	-2.1	-9	.
Fc1ccc(-c2nc(-c3cccs3)[nH]c2-c2ccc(F)cc2)cc1	6	i	11	-7	-1	-53	3.5	-36	?	13
C=CCNc1nc(Cl)nc(NC2CCCCC2)n1	41	i	5	10	0	1	1.7	0.6	6	4.1
COc1ccc(C(CC(=O)c2ccccc2)CC(=O)c2ccccc2)cc1	33	i	-3	9	-2	1	6.7	-0.8	13	-3.8
COc1ccccc1C(=O)C1CCCN(C(=O)c2cccnc2SC)C1 (stereo not drawn)	6	i	-3	-18	1	10	0.1	8.3	1	0.3
CCN(c1ccccc1)S(=O)(=O)c1ccc(C(=O)N(CCCN(C)C)c2nc3c(C)cccc3s2)cc1	-12	i	8	0	-47	-81	-19	3.8	38	?
CCc1ccc(CN2CCN(c3ncccn3)CC2)cc1	-5	i	-5	3	-16	-1	-3.8	?	2	0.5
CC(Sc1ncccn1)C(=O)Nc1ccc2c(c1)OCO2 (stereo not drawn)	.	i	8	.	13	8	-2.3	.	.	1.6
O=C(CCc1nc(-c2cccs2)no1)NCc1ccc(F)cc1Cl	.	i	-4	-3	-15	-29	-9.2	-1.1	13	4.4
COc1cc2c(cc1OC)C(C(=O)NC(C)c1ccccc1)CC(=O)N2 (stereo not drawn)	-13	i	6	7	24	14	3.9	?	-3	2.6
O=C(CN(Cc1ccccc1Cl)C(=O)CN1C(=O)CSc2ccccc21)NC1CC1	1	i	2	3	-5	-12	-1.4	-0.2	8	-4.1
CC1=CS/C(=C(/C#N)C(=O)N2CCOCC2)N1c1ccccc1	-8	.	-10	5	.	.	.	1.6	-21	.
C=C(C)C1CC=C(C)/C(=N/NC(=O)COc2ccc(C)cc2)C1 (stereo not drawn)	4	.	-6	-21	.	.	.	-4.0	2	.
Cc1ccc(NC(=O)COC(=O)C2=NNC(=O)CC2)c(Br)c1	.	i	-10	.	5	0	0.4	.	.	-3.8
CCOC(=O)Nc1ccc(C)cc1Br	.	.	5	-1	.	.	.	-0.5	-4	.
CCOc1ccc(-c2cc(CCCC(=O)NCCC(C)C)no2)cc1	-26	i	-2	-18	-7	-8	-1.3	-0.9	10	-3.5
Cc1ccc(C)c(NS(=O)(=O)c2ccc(OCC(=O)N3CCCC3)cc2)c1	-8	i	-2	3	11	10	-8.6	?	-1	5.5
Cc1ccc(C(C(=O)NC2CCCC2)N(C(=O)CCC(=O)Nc2cc(C)on2)c2ccccc2)cc1 (stereo not drawn)	.	.	-1	-2	.	.	.	?	-4	.
(listing goes on)
SMILES	ALR inh	FGF22 binding	Beta apoptosis	Calb FLC	rRNA inh HTS	rRNA inh HTS OD600	rRNA inh HTS RFP	RanGTP-Impb inh	T cruzi repl	MLL AF4-AF9 inh
CCN1CCN(CCOCCOc2ccccc2)CC1	8	i	-8	9	7	14	-0.8	0.7	6	6.0
CC(C)(C)C(C(=O)n1cccc1C#N)c1ccccc1 (stereo not drawn)	-2	i	-5	.	-2	3	-8.4	.	.	0.1
N#CC1(Nc2ccccc2)C(=O)Nc2ccccc21 (stereo not drawn)	-16	.	-3	-1	.	.	.	5.0	2	.
O=C(O)CCCCCNc1nc(-c2ccccc2)nc2ccccc12	9	i	-5	-8	-13	-5	-8.6	-5.0	4	3.8
O=C(NCCCN1CCOCC1)c1cccc(NS(=O)(=O)c2ccc(Br)cc2)c1	-9	i	-1	.	8	11	-2.4	.	.	-0.2
CC1CCCC(NC(=O)COC(=O)/C=C/c2ccc(F)cc2)C1C (stereo not drawn)	.	i	0	.	7	9	-2.1	.	.	-0.4
COC(=O)c1ccc(COc2ccc(C=O)cc2)o1	-2	i	-3	-7	10	1	-2.1	1.9	-6	-4.8
CCOC(=O)N1CCN(Cc2c(F)cccc2Cl)CC1	-17	.	4	2	.	.	.	-2.5	-4	.
O=C(CCc1ccccc1)N/N=C/c1cccc([N+](=O)[O-])c1	1	i	8	10	20	16	2.9	.	-1	0.5
O=C(NCCCn1cccn1)C1CCC(=O)N(CCc2ccccc2)C1 (stereo not drawn)	-21	i	-7	-1	0	-1	3.1	1.1	-18	0.1
O=C(NCC(=O)N1CCN(c2ccccc2)CC1)c1ccccc1	30	i	2	-1	6	7	0.1	-4.0	-5	-1.4
COc1cc2c(cc1OC)C(C(=O)Nc1ccc(F)c(Cl)c1)CC(=O)N2 (stereo not drawn)	-4	i	-5	4	2	10	-2.6	-1.1	8	1.4
COc1ccc(Cl)cc1NC(=O)CN(C)C(=O)C1COc2ccccc2O1 (stereo not drawn)	.	i	-4	.	-30	-32	-7.1	.	.	-4.5
CCOc1ccccc1NC(=O)CNC(=O)c1nn(-c2ccc(OC)c(OC)c2)c(=O)c2ccccc12	-1	i	-13	2	5	12	-2.9	2.6	10	1.2
CNC(=O)c1c(NC(=O)c2ccco2)sc(C)c1C	.	i	-2	15	2	3	-0.7	-1.9	-2	-0.2
O=C(NCc1cccc(F)c1)c1ccc(N2C(=O)Cn3c(cc4sccc43)C2=O)cc1	-26	.	-7	-2	.	.	.	0.5	-17	.
Cn1ncc(SCc2ccccc2)c(Cl)c1=O	3	i	6	-8	-11	-14	-5.0	2.8	-47	0.7
CCc1ccccc1NC(=O)Nc1ccc(F)cc1	-16	.	6	4	.	.	.	2.1	-4	.
CCN1CCN(c2ccc(N=Cc3ccccc3O)cc2)CC1	98*	i	-2	18	11	15	6.5	7.4	-4	57*
CCN(C(=O)/C=C/c1ccc(OC)cc1)C1CCCCC1	-2	i	5	-2	-27	-50	4.9	-0.1	4	4.4
Cc1sc2nc3n(c(=O)c2c1C)CCCS3	-1	.	-5	-1	.	.	.	?	2	.
COc1ccc(S(=O)(=O)N(C)CC(=O)N2CCC(C(N)=O)CC2)cc1Cl	.	.	-9	7	.	.	.	6.4	-21	.
Cc1ccc(S(=O)(=O)N2CCC(C(=O)N[C@H](C(=O)NC3CCS(=O)(=O)C3)C(C)C)CC2)cc1 (stereo partly drawn)	-20	.	1	-16	.	.	.	1.2	-9	.
Cc1ccc(C(=O)Nc2ccc(N3CCN(C)CC3)cc2)cc1	5	i	2	-5	3	6	-5.1	0.4	18	3.9
CC(C)(CO)NCC(=O)Nc1cc(C(F)(F)F)cc(NC(=O)CNC(C)(C)CO)c1Cl	3	.	6	23	.	.	.	2.5	15	.
More results follow.
SMILES	ALR inh	FGF22 binding	Beta apoptosis	Calb FLC	rRNA inh HTS	rRNA inh HTS OD600	rRNA inh HTS RFP	RanGTP-Impb inh	T cruzi repl	MLL AF4-AF9 inh
C/C(=N\NC(=O)c1ccccc1C)c1ccc(NC(=O)c2cccs2)cc1	-1	.	2	-2	.	.	.	3.3	-1	.
Cc1ccc(CC(=O)OC(C)C(=O)NC2CCCCC2C)cc1C (stereo not drawn)	.	i	3	.	-7	-6	-3.3	.	.	-0.9
CCN(CC)S(=O)(=O)c1ccc(Cl)c(C(=O)OCC(=O)c2c(N)n(C)c(=O)n(C)c2=O)c1	-21	i	-6	6	-19	-18	7.4	1.2	-2	5.6
O=C(CCN1CCc2ccccc2C1)Nc1ccc2c(c1)OCO2	-14	.	-1	-22	.	.	.	-1.0	16	.
Cn1ncc(Cl)c(Oc2ccccc2)c1=O	-4	i	-4	18	.	.	.	-4.0	-8	-4.2
COc1ccc(OC)c(NC(=O)CS(=O)(=O)Cc2ccccc2)c1	.	i	.	10	5	2	-1.4	0.2	2	-6.1
COCCN1C2=C(C(=O)CC(C)(C)C2)C(c2ccc(O)c(OC)c2)C2=C1CC(C)(C)CC2=O	22	i	1	-1	1	5	-0.6	3.1	3	-1.1
O=C(CN1C(=O)NC(CCc2ccccc2)C1=O)Nc1cccc(Br)c1 (stereo not drawn)	-4	i	-2	.	-17	-32	1.6	.	.	-3.3
CS(=O)(=O)N1CCN(C(=O)C2c3ccccc3Oc3ccccc32)CC1	-13	i	-1	-11	4	-5	-5.4	1.8	-32	7.1
CCOc1ccccc1NC(=O)c1cccc2ccccc12	-6	i	6	4	-7	-5	-4.0	?	-10	-10
Cc1ccc2nc(-c3ccc4c(c3)NC(=O)CO4)cn2c1	1	i	-2	4	2	11	-9.5	4.8	3	-1.5
Cc1ccc(NC(=O)CN2CCN(S(=O)(=O)c3ccc(F)cc3)CC2)cc1C	-6	i	7	.	-5	-11	-1.2	.	.	1.9
CCOC(=O)c1ccc(NC(=S)N2CCN(S(C)(=O)=O)CC2)cc1	3	.	-20	-10	.	.	.	5.3	-7	.
CCOc1cccc(CNc2ccc(O)cc2)c1OCc1ccccc1Cl	32	.	11	0	.	.	.	2.3	-15	.
CC1=C(C(=O)OC(C)C)C(c2ccccn2)n2ncnc2N1 (stereo not drawn)	20	i	1	-7	-2	12	-7.0	-5.4	8	13
CCOC(=O)CNC(=O)CSc1ccc2nnc(-c3cccnc3)n2n1	1	i	-7	-1	9	6	-4.4	1.7	2	-1.1
CC1CN(C2=CC(=O)CCC2)CC(C)O1 (stereo not drawn)	5	i	-4	-10	22	14	-6.9	-0.7	-13	-2.1
Cc1ccc(S(=O)(=O)Cn2nnnc2C(c2ccccc2)N2CCN(c3ncccn3)CC2)cc1 (stereo not drawn)	2	.	2	10	.	.	.	1.3	18	.
CCCC(=O)NC(Nc1ccccc1OC)C(Cl)(Cl)Cl (stereo not drawn)	-2	i	0	-31	-2	-6	-2.7	?	16	1.9
